HPGD inh: qHTS Assay for Inhibitors of HPGD (15-Hydroxyprostaglandin Dehydrogenase); 15-hydroxyprostaglandin dehydrogenase [NAD(+)] (Homo sapiens), P15428; purified HPGD, NADH fluorescence kinetic, PGE2 substrate; Potency, µM, without a hit: at the highest dose activity change, negative = inhibition, most hits filed as inhibitors; hit rate 4.3% among 150,000; active = well fitted inhibition curve with a large enough effect (not every such curve was filed as active); inconclusive = small, poorly fitted or top-dose-only effect, or another doubt; inactive = no such curve, though single readings can be large or run the other way;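 also: top concentration of the series not given in the record; plate controls included wells without enzyme; inactives centre near -10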
Target sequence (P15428 whole entry, looked up): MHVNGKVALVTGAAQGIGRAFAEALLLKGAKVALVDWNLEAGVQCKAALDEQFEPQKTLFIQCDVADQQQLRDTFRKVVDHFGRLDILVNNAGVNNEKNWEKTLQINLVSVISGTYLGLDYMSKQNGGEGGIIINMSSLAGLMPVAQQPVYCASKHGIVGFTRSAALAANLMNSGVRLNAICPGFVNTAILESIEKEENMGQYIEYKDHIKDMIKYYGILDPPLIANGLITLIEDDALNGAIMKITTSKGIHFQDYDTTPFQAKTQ
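NADH formation kinetics: reaction with 30 uM PGE2 and 1 mM NAD+ (final), 20 nM enzyme, Tris-HCl pH 8 with Tween 20, after 15 min compound preincubation at room temperature. Fluorescence change, last versus first of five reads.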
An asterisk follows results filed as active; ? = inconclusive; & = joins results of further samples. % is scaled to controls: 0 for no effect and ±100 for the full control effect; potency is read from the fitted curve at half-maximal effect. Only part of the results is shown; the hit share may differ from the screen's.

HPGD inh | structure
-2.5% | CC(C)(C)c1ccc(S(=O)(=O)NC(Cc2ccccc2)C(=O)O)cc1 (stereo unspecified)
-5.6% | CC(C)SC1=NC(C)(C)C=C(/C=C/c2c(Cl)cccc2Cl)N1
-15.7% | CCn1cc(Br)c(C(=O)Nc2ccc(F)c(Cl)c2)n1
-15.3% | CSc1ccc(/C=N/NC(=O)CNc2cccc3ccccc23)cc1
-9.2% | COc1ccc2nc(SCC(N)=O)[nH]c2c1
0.4% | COC(=O)c1ccccc1S(=O)(=O)N(CCCN1CCOCC1)Cc1cccs1
? | COc1cccc2c(=S)c(CCC(C)=O)c(C)[nH]c12
-13.7% | Cc1cc(C)cc(OCCCC(=O)O)c1
0.9% | CC(=O)c1cnn(-c2cc(Oc3cccc(C)c3)ncn2)c1C
0.7% | Cc1ccccc1OCc1nc2ccccc2c(=O)n1/N=C/c1cn[nH]c1-c1ccccc1
-19.0% | CC(C)c1[nH]nc2c1C(c1ccc(OC(=O)c3ccco3)cc1)C(C#N)=C(N)O2 (stereo unspecified)
-8.9% | O=C(c1ccc2c(=O)n(C3CCCC3)c(=S)[nH]c2c1)N1CCc2ccccc21
? | O=C(Nc1ccc2c(c1)oc1ccccc12)c1cccnc1
-5.8% | Cc1cccc(NS(=O)(=O)c2ccc(NC(=O)CN(c3cc([N+](=O)[O-])ccc3C)S(C)(=O)=O)cc2)c1
-16.1% | CCOC(=O)/C(=N\Nc1ccccc1)c1csc(Nc2ccc(C)cc2)n1
-2.5% | Cc1ccc(C(=O)NCCNC(=O)CN2CCCC2)cc1
-8.6% | CCOC(=O)N1CCN(C(=O)CSc2ncccn2)CC1
-5.8% | CN(C)CCC(O)(c1ccccc1)c1ccccc1
? | O=C(NC(=S)Nc1ccccc1N1CCCC1)c1ccc([N+](=O)[O-])cc1
-7.3% | Cc1ccc(C(c2nnnn2CC2CCCO2)N2CCN(c3cccc(C)c3C)CC2)cc1 (stereo unspecified)
0.4% | COC(=O)C1CCN(C(=O)c2ccccc2NC(C)=O)CC1
? | COc1ccc2c(=O)cc(-c3ccc(O)cc3)oc2c1
-5.2% | CCN1CCN(c2cc(=O)n(C3CCCCC3)c(=O)[nH]2)CC1
-3.6% | CCc1nnc(NC(=O)CCc2ccc(C)o2)s1
? | O=C(c1c[nH]c2ccc(F)cc2c1=O)N1CCCCCC1
? | c1cncc(CNc2ncnc3ccc(-c4cccnc4)cc23)c1
-17.6% | O=C(Nc1cccc(F)c1)N1CC=C(c2ccc(Cl)cc2)CC1
-2.6% | CC1=CC(=O)C2=C(C)C[C@H](OC(=O)Cc3ccccc3)C3[C@H](OC(=O)[C@H]3C)C12 (stereo partly specified)
-25.3% | Cn1cnc2c1c(=O)n(Cc1cccc(Br)c1)c(=O)n2C
-3.0% | Cc1csc(NC(=O)C2CCCN2C(=O)OCC(C)C)n1 (stereo unspecified)
-3.5% | Cn1c(Cn2cnc3ccccc32)nnc1SCC(=O)CC(=O)Nc1ccccc1
-3.8% | Nc1c(C(=O)Nc2ccccc2)sc2nc3c(c(-c4ccco4)c12)CCC3
-3.4% | Cc1cccc(N2CCN(C(=O)C3CCN(S(=O)(=O)c4cccnc4)CC3)CC2)c1C
-11.9% | COc1ccc(NC(C)=O)cc1NC(=O)CSc1nc2ncccc2[nH]1
15.8µM* | COc1ccc(-c2ccc(=O)n(CC(=O)Nc3ccc(C(=O)NC4CC4)cc3)n2)cc1OC
0.1% | O=C(c1ccccc1)N1CCN(c2ccccc2F)CC1
-2.9% | O=C(CNC(=O)c1cccs1)c1ccc([N+](=O)[O-])cc1
-9.7% | CCC(CC)c1nnc(NC(=O)[C@@H](NC(=O)c2cccc(C)c2)C(C)C)s1
-14.2% | O=C(OCc1ccccc1F)c1ccc2c(c1)OCCO2
-3.2% | O=C(CCc1ccccc1)NC(NC(=S)Nc1ccc(Cl)cc1)C(Cl)(Cl)Cl (stereo unspecified)
-1.2% | O=C(Cn1cnc2c(cnn2-c2ccccc2Cl)c1=O)N1CCc2ccccc21
-9.2% | COc1ccc(NC(=O)NC23CC4(C)CC(C)(CC(C)(C4)C2)C3)cc1
-14.4% | O=S(=O)(Nc1cccc(C(F)(F)F)c1)c1cccnc1
-6.6% | Cc1ccc(C(=O)N/C(=C/c2ccco2)C(=O)O)cc1
-4.8% | COc1ccccc1NC(=O)N1CCN(c2ccc(F)cc2)CC1
? | CCn1c(CCCNC(=O)c2cccs2)nc2ccccc21
-4.9% | O=C1CCn2nc(-c3ccc(Cl)cc3)cc2N1
-19.7% | Cc1cccc(Nc2nnc(SCC(=O)Nc3ncc(C(F)(F)F)cc3Cl)s2)c1C
-1.3% | Oc1[nH]c2ccccc2c1OCc1ccncc1
-23.4% | O=C(NC1CCCC1)C(c1ccncc1)N(Cc1ccccc1)C(=O)Cc1cccs1 (stereo unspecified)

Following part
HPGD inh | structure
-23.0% | Cc1ccc(S(=O)(=O)Nc2c(C)ccc3nsnc23)cc1
-14.1% | O=C(O)c1c(F)c(F)cc2ccccc12
-11.0% | CCCCCCc1cc2cc(-c3nnc(-c4ccccc4OC)o3)c(=O)oc2cc1O
-1.2% | CCn1c(COc2ccc3c(c2)CCCC3)nnc1SCC(=O)Nc1nccs1
? | Cc1cc2oc(C(=O)NCc3ccncc3)c(C)c2cc1C
-11.8% | CC(=O)Cc1nsc(NC(=O)c2cccs2)n1
-7.5% | COC(=O)c1ccc(C(NC(=O)OCc2ccccc2)/C(=C/[C@@H](C)C(=O)NCc2ccc(C)o2)c2cccnc2)cc1 (stereo partly specified)
-15.1% | Clc1ccc(Nc2nc(NCCN3CCOCC3)nc(N3CCOCC3)n2)cc1
-8.3% | CC1CCN(c2nc3c(c(=O)[nH]c(=O)n3C)n2Cc2ccccc2Cl)CC1
-9.3% | Cc1ccc(S(=O)(=O)NCC(=O)OCc2csc(-c3ccccc3)n2)cc1
-10.9%&0.1%&-4.8% | Cc1cc(=O)[nH]c(=S)[nH]1
-25.8% | Cc1cc(NCc2ccccc2Cl)n2nnnc2n1
15.8µM* | Cn1c(C(=O)N2CCN(Cc3ccccc3)CC2)cc2c(=O)n(C)c3ccccc3c21
-2.9% | Cc1nn(C)c(Oc2ccc(Cl)cc2)c1C=O
? | CCC(=O)N(Cc1cc2c(C)cc(C)cc2[nH]c1=O)C1CCCCC1
-0.9% | CC(=O)OC1CC[C@]2(C)C(=CCC3C4CCC(C(C)CCCC(C)C)[C@]4(C)CCC32)C1 (stereo partly specified)
1.6% | COc1ccc(-n2c(C(C)(C)C)csc2=Nc2c(C)n(C)n(-c3ccccc3)c2=O)cc1
7.94µM* | Cc1ccc(C(=O)Oc2ccc3c(c2)ncn3C)cc1
-16.4% | Cc1csc(C2=C(O)CN(CCc3ccccc3)C2=N)n1
-14.7% | Nc1nc(-c2ccc(Br)s2)c(Br)s1
? | CCOc1c2ccc(C(=O)NCc3cc(C(F)(F)F)cc(C(F)(F)F)c3)cc2nn1C
-20.3% | CC(C)N(C(=O)CSc1nn2c(=O)c(C(C)(C)C)nnc2s1)c1ccccc1
-6.7% | O=C(NN1C(=O)C2C3C=CC(C3)[C@H]2C1=O)c1cccnc1 (stereo partly specified)
-3.5% | CCc1c(O)nc(SCC(=O)NC(C)(C)C)n(-c2ccccc2)c1=O
-11.7% | Cc1cc(C)c(NC(=O)C(C)OC(=O)c2cc(Br)c(Br)s2)c(C)c1 (stereo unspecified)
-10.6% | Cc1[nH]c2ccccc2c1/C=C(\C#N)C(=O)NC(C)c1ccccc1 (stereo unspecified)
? | Cc1ccc2cc(CN(C(=O)c3ccco3)c3ccccc3)c(=O)[nH]c2c1
-18.4% | COc1ccccc1C/C(N)=N/OC(=O)c1cccc([N+](=O)[O-])c1
3.8% | CCn1ccnc1CC1COc2ccccc2O1 (stereo unspecified)
-15.8% | O=C(COC(=O)CCc1c[nH]c2ccccc12)NC(c1ccccc1)c1ccccc1
8.91µM* | O=C(NCC1CCCO1)c1cc(-c2ccc(Cl)cc2Cl)on1 (stereo unspecified)
? | Cc1ccc(-c2nn3c(C)nnc3s2)cc1NC(=O)c1ccc(-c2ccc(Cl)cc2Cl)o1
-11.6% | Cc1ccc(C)c(N(CC(=O)N(C)C)S(C)(=O)=O)c1
-11.8% | COc1ccc(NC2=Nc3cccc4cccc2c34)cc1
-18.7% | CN1CCN(Cc2c(O)c(Cl)cc3c(-c4ccccc4)cc(=O)oc23)CC1
-9.8% | CCn1cc(/C=C/C(=O)Nc2ccn(Cc3c(F)c(F)c(F)c(F)c3F)n2)cn1
-4.6% | C=CCn1c(NCCOC)nc2c1c(=O)n(C)c(=O)n2C
-18.7% | CCC(C(=O)N1CCc2cc(OC)c(OC)cc2C1)c1ccccc1 (stereo unspecified)
-23.3% | COc1cc(OC)c(-c2nnc3n(CCc4ccccc4)c(=O)c4ccccc4n23)cc1OC
17.8µM* | CC1CCN(c2c(NCc3ccc(C(=O)N4CCc5ccccc54)cc3)c(=O)c2=O)CC1
-6.5% | Cn1c(CN2CCOCC2)nnc1SCC(N)=O
-13.6% | O=C(CCCN1C(=O)/C(=C/c2ccccc2Cl)SC1=S)NNC(=O)c1ccccc1Cl
-3.2% | COn1c(=O)c(=O)n(OC)c2ccccc21
28.2µM* | CCOc1ccc2nc(NS(C)(=O)=O)sc2c1
-0.5% | CCCCN(C(=S)Nc1ccccc1)C1CCS(=O)(=O)C1 (stereo unspecified)
-8.3% | O=C(CCc1ccc(S(=O)(=O)N2CCOCC2)cc1)Nc1ccc(N2CCOCC2)cc1
-12.1% | COC(=O)CCC/C=C1/SCC(NC(=O)c2ccccc2)C1O (stereo unspecified)
-10.6% | Cc1ccc2nsnc2c1S(=O)(=O)NCc1ccncc1
-19.0% | O=c1c2ccccc2n(Cc2cccc(F)c2)c(=O)n1C1CCCC1
? | Cc1ccc2nc(-c3ccc(NS(=O)(=O)c4ccccc4)cc3)sc2c1

(continued)
HPGD inh | structure
-13.6% | CCOC(=O)c1nnn(-c2nonc2-n2cccc2)c1CCl
-9.8% | COC(=O)COc1ccc(S(=O)(=O)Nc2ccccc2SC)cc1
? | CCOC(=O)Nc1cc(=O)c2ccccc2o1
-10.3%&-11.1% | C#CCCCCCCCCCCCCCCCC(=O)O
-3.8% | Cc1cc(C)cc(OCC(=O)OC/C(O)=C(\C#N)c2nc3ccccc3[nH]2)c1

Shown as a hit in HPGD inh (from the list above):
HPGD inh | structure
15.8µM* | COc1ccc(-c2ccc(=O)n(CC(=O)Nc3ccc(C(=O)NC4CC4)cc3)n2)cc1OC
15.8µM* | Cn1c(C(=O)N2CCN(Cc3ccccc3)CC2)cc2c(=O)n(C)c3ccccc3c21
7.94µM* | Cc1ccc(C(=O)Oc2ccc3c(c2)ncn3C)cc1
8.91µM* | O=C(NCC1CCCO1)c1cc(-c2ccc(Cl)cc2Cl)on1 (stereo unspecified)
17.8µM* | CC1CCN(c2c(NCc3ccc(C(=O)N4CCc5ccccc54)cc3)c(=O)c2=O)CC1
28.2µM* | CCOc1ccc2nc(NS(C)(=O)=O)sc2c1

Given with each value named: entries from further up
O=C(c1c[nH]c2ccc(F)cc2c1=O)N1CCCCCC1
  HPGD inh: ?
c1cncc(CNc2ncnc3ccc(-c4cccnc4)cc23)c1
  HPGD inh: ?
O=C(Nc1cccc(F)c1)N1CC=C(c2ccc(Cl)cc2)CC1
  HPGD inh: -17.6%
CC1=CC(=O)C2=C(C)C[C@H](OC(=O)Cc3ccccc3)C3[C@H](OC(=O)[C@H]3C)C12 (stereo partly specified)
  HPGD inh: -2.6%
